# Compound activity as filed in PubChem.
# Sa RN4220 lethal: growth inhibition of S. aureus RN4220, primary screen, OD600; 16 h; inhibition, % (test concentration not listed); 330,000 compounds, 0.33% hits; AID 1259311, 2017;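 active means z-score of -3 or lower and OD600 up to 0.18 on both plates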;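 further: plate controls were untreated cells for no effect and reference antibiotic for full effect; stock transfer was 100 nL into about 80 µL; one replicate is shown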
# PrP UTR inh: inhibition of PrP 5' UTR reporter expression; cell-based PrP 5' UTR mRNA reporter, plate reader; inhibition, % (test concentration not listed); 340,000 compounds, 0.35% hits; AID 488862, 2010;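 active means every replicate at 50% or more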;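 further: 0 = median of the neutral control wells; tested in H4 reporter cells; numbers are from one replicate; inactives centre near -14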
# Mtb hypoxia rep: PubChem AID 1159583. fluorescence inhibition, % (no concentration beside the values). 300,000 compounds, 0.1% hits. M. tuberculosis hypoxia-regulated fluorescent reporter, fluorescence;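 active means 35 to 45% if threefold the growth effect, above 45% if 1.5-fold the growth effect; inactive means the rest, general growth blockers included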;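 further: wells of about 50 µL received 100 nL stock; 0% = vehicle wells and 100% = reference inhibitor wells; whole bacteria with a GFP reporter of the hypoxia response; strong numbers were not always called active; many hits fall short of the cut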
# Bead autofluor: counter-screen for toxin protease inhibitors: compound fluorescence; compound autofluorescence counterscreen, microsphere flow cytometry; active compounds read high; fluorescence intensity (test concentration not listed); 360,000 compounds, 3.1% hits;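 active means at least 3 SD above the mean of all compounds, about 16000 in these data; inconclusive means too few beads counted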;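 further: 100 nL of 1 mM stock went into each well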
# BJeLR viability: MLPCN primary cell-based screen for lethality selective to Ras in HRASV12 cells; inhibition, % (no concentration beside the values); BJeLR (HRASV12) viability, CellTiter-Glo ATP luminescence, 48 h; reference of the scale not given here; 300,000 compounds, 0.17% hits; AID 1554, 2009;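 active means replicate mean above 50%; inconclusive means above 50% but judged a plate artefact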;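 further: 50 nL library stock added to about 25 µL; numbers are from one replicate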
# ugtP null kill: growth inhibition of ugtP-null S. aureus, primary screen, RN4220 ugtP deletion, OD600; 16 h; some inactives read as strong as hits; 330,000 compounds, 0.54% hits; growth inhibition, % (concentration not given with the values);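 active means z-score under -3 and OD600 up to 0.15 on both plates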;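 further: plate controls were untreated wells for no effect and antibiotic for full effect; wells of about 80 µL received 100 nL stock; the first replicate is given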
# Mtb hypoxia rep growth: further read-out of Mtb hypoxia rep, marked with its call; growth inhibition, %; measured here: M. tuberculosis growth (absorbance);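 0% = vehicle and 100% = reference antibiotic; read after six days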
# Active calls of the source: *; ? = inconclusive; . = no result given.
# Values run as follows: Sa RN4220 lethal	PrP UTR inh	Mtb hypoxia rep	Mtb hypoxia rep growth	Bead autofluor	BJeLR viability	ugtP null kill
> CC(=O)c1ccccc1NC(=O)C1CC(=O)N(c2ccc3c(c2)OCCO3)C1 (configuration not stated)
 : -0.4	-0.4	7.1	5.6	8897	.	-0.7
> COc1ccc(CNC(=O)CCc2nnc3ccc(N4CCC5(CC4)OCCO5)nn23)cc1
 : -2.2	-15.9	-2.1	-5.5	5422	-7.8	3.2
> O=C(C1CCCO1)N1CCN(S(=O)(=O)c2cccc3nsnc23)CC1 (configuration not stated)
 : 8.8	-6.9	16.3	10.5	2573	-5.9	3.3
> O=[N+]([O-])c1ccc(OCCCOc2cccc3cccnc23)cc1
 : 18.6	-20.6	9.3	5.5	.	-15.4	11.8
> Cc1nn(CCO)c2nc(-c3cccs3)cc(C(F)(F)F)c12
 : 7.2	3.0	2.7	1.5	2059	-7.6	1.5
> CSc1ccc(C=NS(=O)(=O)c2ccccc2)cc1
 : 3.6	.	-4.5	3.2	.	.	5.5
> O=C1C2C(c3cccc(C=Cc4ccccc4)c3)CC=CC2C(c2ccc3ccccc3c2)N1Cc1ccccc1 (configuration not stated)
 : 21.4	.	4.0	2.2	.	.	3.0
> COc1ccc(NC(=O)C(=O)NN=C(C)CC(=O)Nc2cc(C)ccn2)c(OC)c1
 : 1.1	.	-4.4	6.5	.	.	-0.6
> CCc1nc2c(c(SC)nn2-c2ccccc2)c(N)c1C(=O)OC
 : 2.1	-12.6	2.2	4.0	2439	-13.0	8.1
> COc1ccc(N2CCN(CCOc3ccc4c(C)cc(=O)oc4c3)CC2)cc1
 : 4.9	-20.6	0.3	-1.2	11513	13.3	12.1
> Cc1ccc(S(=O)(=O)N2CCOCC2)cc1NC(=O)COC(=O)c1cnc(Cl)c(Cl)c1
 : 2.3	-31.1	6.1	5.4	?	.	0.1
> COc1ccc(C)cc1NC(=O)C(OC(=O)Cn1cnc2c1c(=O)n(C)c(=O)n2C)c1ccccc1 (configuration not stated)
 : 3.2	-25.3	11.4	4.4	.	-11.8	9.6
> CCn1c(Cc2ccccc2)nnc1SCC(=O)Nc1ccccc1O
 : 8.8	6.9	19.2	8.6	3488	7.5	-1.6
> O=C(CCCCl)NC(=S)Nc1cc(C(F)(F)F)ccc1N1CCOCC1
 : -3.7	-8.6	0.3	-1.7	2504	0.5	60.9
> CCCCc1cc(=O)oc2cc(C)cc(OCC(=O)N3C[C@H]4C[C@@H](C3)c3cccc(=O)n3C4)c12
 : -0.5	-1.3	.	.	5559	1.3	5.2
> COc1cc(C2c3cc4c(cc3CC3COC(=O)C32)OCO4)cc(OC)c1OC (configuration not stated)
 : 7.5	55.2	.	.	4345	.	11.8
> CCN(CC)S(=O)(=O)c1ccc(N2CCOCC2)c(NS(=O)(=O)c2cc(C(C)(C)C)ccc2C)c1
 : 12.0	-21.3	2.7	0.9	2353	-30.6	14.6
> CC(NC(=O)c1ccc(=O)oc1)c1ccccc1 (configuration not stated)
 : -2.4	-5.2	-8.0	-0.3	3261	3.5	-6.2
> CCOC(=O)c1sc(=S)n(-c2ccc(C)cc2)c1N
 : 1.3	-24.0	12.4	0.6	4173	-7.2	6.1
> Cc1ccc2c(c1)C1C(CO2)C(c2ccccc2)[C@]2(C)C(=O)Nc3cc(F)ccc3C(=O)N12 (some centres not stated)
 : -11.0	.	-12.1	13.3	.	.	0.0
> CC(C)CNC(=S)NNC(=O)c1csc2ccccc12
 : 6.9	-26.4	.	.	7838	5.5	9.4
> COC(C(=O)Nc1ccnn1C1CCN(Cc2cnn(C)c2)CC1)c1ccccc1 (configuration not stated)
 : 0.2	-19.8	-5.2	-1.5	4014	-0.3	3.7
> CN(CCc1ccccn1)C(=O)CC1C(=O)NCCN1Cc1ccc(-c2ccccc2)cc1 (configuration not stated)
 : 8.8	1.9	-4.8	-4.9	4366	2.8	10.4
> Cc1ccccc1OCC(=O)Nc1nnc(C2CC2)s1
 : 7.1	.	13.0	8.6	5495	.	-5.6
> COC(=O)c1cc(S(=O)(=O)N2c3ccccc3CC2C)c[nH]1 (configuration not stated)
 : 8.2	-6.0	6.0	2.0	5737	5.4	-4.4
> Cc1c(NC(=O)c2c(F)c(F)c(F)c(F)c2F)c(=O)n(-c2ccccc2)n1C
 : 6.7	-3.0	11.5	6.9	3652	9.0	2.4
> Cc1ccc(N2C(=O)CC(NNC(=O)c3cccc(S(=O)(=O)N4CCCC4)c3)C2=O)cc1 (configuration not stated)
 : 3.2	-8.6	5.1	5.6	7057	-4.0	3.6
> COc1cc2c(cc1OC)C(=S)NC1(CCCC1)C2
 : 1.0	-20.5	-7.2	1.0	3489	0.3	-1.1
> CN(Cc1c(C(=O)NN=Cc2cccc(Cl)c2)nnn1-c1nonc1N)c1ccccc1
 : 5.9	.	0.8	2.9	.	.	-19.8
> Cc1cccc(-n2c(CNC(=O)c3cccc([N+](=O)[O-])c3C)n[nH]c2=S)c1
 : -0.1	-11.4	1.9	-1.5	4494	3.0	3.9
> Cc1cccc(-c2cccc(NC(=O)C3CCCN(C(=O)c4csc(C)n4)C3)c2)c1 (configuration not stated)
 : 1.5	-14.5	4.6	-0.8	4576	5.8	-2.4
> CN(C)c1ccc(/C=N/NC(=O)C(O)(c2ccccc2)c2ccccc2)o1
 : .	-40.8	.	.	16827*	-0.9	.
> O=C(CSc1nc2ccc(NC(=O)c3ccccc3C(=O)O)cc2s1)Nc1ccc(F)c([N+](=O)[O-])c1
 : 3.8	-12.2	7.1	-2.3	4598	2.4	-16.4
> CC(C)CCNC(=O)NC(=O)COC(=O)C1CCN(S(=O)(=O)c2ccccc2F)CC1
 : 1.9	-7.0	4.3	7.9	2409	3.6	-1.3
> O=C(COC(=O)c1cc(Cl)ccc1O)NNC(=O)c1ccc([N+](=O)[O-])cc1
 : 0.2	-1.2	-5.8	9.3	6277	0.8	-1.7
> CNC(=O)COC(=O)c1ccc(Cl)c(S(=O)(=O)N2CCCC2)c1
 : 5.6	-22.8	2.0	-1.0	4233	1.5	3.1
> CN(C)CCOc1ccc(-c2c(-c3ccccc3)sc3ccccc23)cc1
 : 100.4*	-14.3	51.2*	30.1*	3050	.	100.1*
> Cc1c(C(=O)Nc2nc3ccccc3[nH]2)oc2c(Cl)cccc12
 : 9.8	-42.3	-9.3	4.6	2142	-6.1	-24.0
> O=C1OC(c2ccc(Br)cc2)=N/C1=C\c1ccco1
 : 1.0	4.3	1.0	-9.4	4421	1.8	0.0
> CCc1ccc2c(c1)c1nc(C)sc1n2CC
 : 9.8	-8.3	12.9	-21.5	.	0.3	-11.7
> O=C1CC(c2ccccc2)c2ccccc21 (configuration not stated)
 : 6.5	-24.8	0.2	2.7	4204	-2.6	10.1
> Cc1ccc(NC(=O)CC2NCCNC2=O)cc1 (configuration not stated)
 : 1.1	-19.1	.	.	3699	2.3	-3.0
> CC(C)(C)c1cc2nc3c(c(=O)n2[nH]1)CN(Cc1ccccc1)C3=O
 : 8.4	.	-6.3	0.7	3953	1.2	1.2
> CC(OC(=O)c1cccnc1Cl)C(=O)NCc1ccccc1 (configuration not stated)
 : 2.1	-4.7	-14.0	1.1	3858	.	1.3
> CCCCC(=O)Nc1nnc(S(=O)(=O)N(C)Cc2ccco2)s1
 : 0.0	-8.1	1.6	-14.8	4128	-2.9	-3.5
> CCn1c(=O)c(=O)[nH]c2cc(C(=O)N3CCN(c4ccccc4F)CC3)ccc21
 : 1.5	-13.1	.	.	3896	4.3	1.0
> CC(=O)Nc1sc(N)nc1-c1ccccc1
 : 9.1	-10.9	-0.7	-7.5	6283	-2.4	-20.3
> CSc1nsc2nc(=O)c(/C=C3\C=Nc4ccccc43)c(N)n12
 : 11.8	-16.7	-9.2	3.4	4249	-10.5	21.8
> CCOC(=O)c1nc(NCc2ccccc2F)c2ccccc2n1
 : 4.8	-10.1	1.6	8.7	2129	-1.5	3.9
> CCOC(=O)C1CC2CC(C1)CN(C(=O)C1CCCCC1)C2 (configuration not stated)
 : 0.0	-2.7	4.5	2.4	4507	2.3	4.8

# Other results.
# Values run as follows: Sa RN4220 lethal	PrP UTR inh	Mtb hypoxia rep	Mtb hypoxia rep growth	Bead autofluor	BJeLR viability	ugtP null kill
> CCC(C)(C(=O)Nc1ccccc1C)N(C(=O)CNC(C)=O)c1ccccc1C (configuration not stated)
 : 3.5	-0.5	2.8	13.5	2331	5.8	0.3
> O=C(C1CCN(S(=O)(=O)c2ccc3c(c2)OCCO3)CC1)N1CCc2ccccc21
 : 1.7	-18.5	14.3	5.1	12662	1.4	1.8
> CCOC(=O)C(Cc1ccccc1)c1ccnc2nc(N)nn12 (configuration not stated)
 : 5.0	-34.7	6.8	3.7	4530	-2.9	8.2
> COc1cc(C(=O)N(C)C2CCCN(Cc3ccccc3F)C2)cc(OC)c1OC (configuration not stated)
 : -0.8	-1.6	-1.3	1.3	3553	2.4	7.2
> Cc1nn(C(C)(C)C)c(OC(=O)CC(C)C)c1S(=O)(=O)c1ccccc1
 : 0.4	-8.2	-13.8	-13.0	2873	-12.0	13.3
> Cc1cc(=O)[nH]c(SCC(=O)N2CCC(C(N)=O)CC2)n1
 : 0.3	-21.0	5.3	7.4	8321	1.6	-4.4
> OCCOc1ccc(C2=NCCO2)cc1
 : -2.6	-12.0	3.1	7.7	11288	1.9	0.5
> COC(=O)C1SCC2C(=O)N(Cc3ccc(Cl)c(Cl)c3)CC(=O)N21 (configuration not stated)
 : 1.3	-14.7	0.2	3.2	2175	1.6	0.5
> COc1ccc(NC(=O)NS(=O)(=O)c2ccc(C)cc2)cc1OC
 : 5.6	-12.4	25.5	48.5	4014	.	2.4
> O=C(CSc1nnc(CNC(=O)c2ccccc2F)o1)NCC1CCCO1 (configuration not stated)
 : 13.2	0.4	.	.	3272	1.6	-0.6
> CN=C1SC(CC(=O)Nc2ccc(F)cc2F)C(=O)N1N=C(C)c1cccc(OCC(=O)O)c1 (configuration not stated)
 : 3.0	.	-2.0	7.1	.	.	7.5
> CO/N=C(/CNC(=O)c1ccc(Cl)cc1Cl)c1ccc(Cl)cc1
 : .	-11.7	.	.	3180	2.8	.
> Cc1onc(-c2ccccc2Cl)c1C(=O)Nc1sc2c(c1C#N)CCC2
 : 5.6	-18.0	18.6	6.5	?	-4.0	-6.8
> COc1cc(C2NC(=O)NC(c3ccccc3)=C2C(C)=O)c(Br)cc1OCC(N)=O (configuration not stated)
 : -0.8	-20.3	7.2	-1.5	3127	2.9	7.3
> Cc1cc(Cc2ccc([N+](=O)[O-])cc2)c(C)cn1
 : 4.3	-5.1	16.9	4.2	3217	-12.3	4.0
> CCOC(=O)N/N=C/c1c(C)nn(-c2cccc(C(F)(F)F)c2)c1Cl
 : .	-37.8	.	.	2482	15.1	.
> Cc1ccc(-c2nc3ncccc3o2)cc1N
 : 3.3	-37.8	-1.6	-4.5	3609	3.6	-1.0
> O=C(Oc1ccc(OC(=O)c2ccncc2)cc1)c1ccncc1
 : -0.3	-22.3	37.3*	-13.7*	4837	-1.5	-8.1
> CC1(c2ccc3noc(-c4ccccc4)c3c2)OCCO1
 : 4.7	-11.6	4.0	6.7	3130	7.5	-6.9
> COc1ccc(NC(=O)c2cc(-c3ccc(C)cc3)on2)cc1OC
 : 2.5	-3.6	8.3	0.8	3021	0.1	1.1
> Cc1cc(C)n(Cc2ccc(Cl)c(Cl)c2)c(=O)c1S(=O)(=O)c1ccccc1
 : -2.7	-4.9	.	.	2527	4.3	11.7
> O=C(c1ccccc1-c1ccccc1)N1CCOCC1
 : 3.0	-22.0	.	.	4507	-9.4	3.7
> Cc1nc(C(F)(F)F)c(C(=O)NN=C(N)c2ccccn2)s1
 : 3.1	.	-3.5	-0.5	.	.	-0.1
